# KCNQ2 enhance: enhances the rat KCNQ2 potassium channel | O88943 | CHO-K1 KCNQ2, FluxOR thallium flux fluorescence; active compounds read high | B-score at 10 µM | 0.54% of 310,000 active;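 active means fluorescence ratio B-score at least 3 SD of library B-scores, with initial fluorescence B-score within 3 SD, cut at about 5.3 in these data; same plate scores as AID 2156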;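 further: B-score of peak minus minimum over baseline fluorescence ratio after K+ and Tl+ stimulus; positive B-score means potentiation of KCNQ2 with more thallium influx and brighter signal; only the inactives scoring about 0 or higher are listed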
# Target sequence (O88943 whole entry, looked up): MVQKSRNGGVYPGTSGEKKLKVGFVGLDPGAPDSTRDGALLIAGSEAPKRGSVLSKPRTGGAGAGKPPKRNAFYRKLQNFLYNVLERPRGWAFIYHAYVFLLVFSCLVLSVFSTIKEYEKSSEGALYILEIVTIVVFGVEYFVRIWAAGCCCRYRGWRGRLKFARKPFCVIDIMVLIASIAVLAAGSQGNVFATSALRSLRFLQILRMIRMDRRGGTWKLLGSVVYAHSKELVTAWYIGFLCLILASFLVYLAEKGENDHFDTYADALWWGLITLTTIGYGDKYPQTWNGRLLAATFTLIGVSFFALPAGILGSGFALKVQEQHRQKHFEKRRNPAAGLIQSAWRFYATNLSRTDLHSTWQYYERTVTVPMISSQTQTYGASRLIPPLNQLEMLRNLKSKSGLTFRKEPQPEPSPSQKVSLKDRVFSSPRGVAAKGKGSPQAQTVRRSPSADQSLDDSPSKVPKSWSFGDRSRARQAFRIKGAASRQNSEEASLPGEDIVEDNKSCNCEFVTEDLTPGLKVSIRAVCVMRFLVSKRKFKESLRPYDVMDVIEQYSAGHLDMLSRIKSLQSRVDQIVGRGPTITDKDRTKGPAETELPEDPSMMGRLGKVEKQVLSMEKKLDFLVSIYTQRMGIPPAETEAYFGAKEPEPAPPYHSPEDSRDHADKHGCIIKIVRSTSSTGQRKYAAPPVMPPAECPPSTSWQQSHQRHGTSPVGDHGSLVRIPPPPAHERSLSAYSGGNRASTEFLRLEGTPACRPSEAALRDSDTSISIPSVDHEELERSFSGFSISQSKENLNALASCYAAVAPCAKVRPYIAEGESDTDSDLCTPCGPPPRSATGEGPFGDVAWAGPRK
# KCNQ2 enhance baseline: also measured in KCNQ2 enhance; calls as there; B-score; compound at 10 µM; measured here: initial fluorescence intensity artifact check;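 brightness before thallium and not channel activity; 0 = typical well and far values either way flag optical interference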
# * marks the source's active call; other numbers are inactive results. These rows are one share of the data; rates above refer to the full screens.
SMILES,KCNQ2 enhance,KCNQ2 enhance baseline
Cc1ccc(OCc2cc(C(=O)NCc3cc(F)ccc3C)no2)cn1,0.02,0.13
COc1ccc(CN2CCN(c3ncccn3)CC2)c(OC)c1,1.4,-0.13
Cc1cc(C)c2oc(C(=O)N3CCN(Cc4ccccc4)CC3)cc(=O)c2c1,0.99,0.91
CN(C)n1cccc1/C=C(\C#N)S(=O)(=O)c1cccc(Cl)c1,0.03,-1.5
CCOc1ccc(C(C(=O)NC2CCCC2)N(C(=O)CNC(=O)c2ccco2)c2cccnc2)cc1 (stereo not given),1.4,-0.93
Cc1[nH][nH]c(=O)c1C(c1cc2c(cc1Br)OCO2)c1c(C)[nH][nH]c1=O,0.87,-1.1
COC(=O)c1ccc(NC(=O)c2cccnc2)cc1,0.98,-0.85
Cc1ccc(S(=O)(=O)Nc2cc(=O)[nH]c(SCC(=O)Nc3cccc(C)c3)n2)cc1,5.3*,0.78*
COc1ccc(OC)c(S(=O)(=O)N2CCN(c3ccccc3)CC2)c1,0.08,-0.67
CCN(c1ccccc1)S(=O)(=O)c1nnc(NC(=O)C(C)(C)C)s1,0.02,-0.65
CC(=O)N(C)c1cccc([N+](=O)[O-])c1,1.8,1.2
C#CCOCCOCCOCCNc1nc(N2CCN(C(=O)[C@H]([C@@H](C)CC)n3cc(CCCN=C(N)N)nn3)CC2)nc(N2CCN(C(=O)[C@H](C)n3cc(CCCN=C(N)N)nn3)CC2)n1,1.7,1.7
O=C(Cc1ccc(-n2cccc2)cc1)NC1CCCCCC1,0.44,0
O=C(NC1CCN(C(=O)Nc2ccccc2Cl)CC1)c1ccco1,0.31,-0.23
COc1ccc(N=c2cc(-c3ccc(O)cc3)oc3ccccc23)cc1,0.43,-2.7
O=C(COC(=O)c1ccc(NS(=O)(=O)c2cccs2)cc1)NCC1CCCO1 (stereo not given),1.1,-0.01
COc1ccccc1NC(=O)Nc1cc(F)ccc1F,0.87,-0.36
c1cncc(-c2nc(NCc3cccs3)c3ccccc3n2)c1,0.91,1.8
O=C(O)/C(CC(=O)c1ccc(Cl)cc1)=N/Nc1ccc([N+](=O)[O-])cc1[N+](=O)[O-],7.7*,-1.1*
O=C(CSCc1ccccc1)Nc1ccccc1,1.1,-2.9
CC(=O)c1ccc(COC(=O)Cc2ccc([N+](=O)[O-])cc2)cc1,0.02,-0.54
CCc1cc(Cn2nc(-c3ccccc3)cc2C(=O)NCCOC)on1,0.96,-3.7
O=C(CSc1oc(-c2ccco2)nc1S(=O)(=O)c1ccc(F)cc1)NCC1CCCO1 (stereo not given),1.1,-0.25
COCCN(C(=O)COC(=O)CNC(=O)c1cccs1)c1c(N)n(Cc2ccccc2)c(=O)[nH]c1=O,0.67,-2
CCN(C(=O)CN1C(=O)/C(=C/c2ccccc2)SC1=S)C1CCS(=O)(=O)C1 (stereo not given),0.05,-1.3
CN(C(=O)c1ccccc1C(=O)OCC(=O)Nc1ccc(S(N)(=O)=O)cc1)c1ccccc1,1.5,-0.06
CN(C(=O)CN1C(=O)S/C(=C\c2ccccc2Cl)C1=O)C1CCS(=O)(=O)C1 (stereo not given),0.65,0.18
NC(N)=Nc1nc2ccc([N+](=O)[O-])cc2[nH]1,3,-2.7
O/N=C1/CCSc2ccccc21,0.62,0.15
CC(=O)COc1ncnc2c(Cl)cc(Cl)cc12,1.4,0.38

# Not a retest: 2 of the compounds above.
SMILES,KCNQ2 enhance,KCNQ2 enhance baseline
O=C(COC(=O)c1ccc(NS(=O)(=O)c2cccs2)cc1)NCC1CCCO1 (stereo not given),1.1,-0.01
COc1ccccc1NC(=O)Nc1cc(F)ccc1F,0.87,-0.36

# (listing goes on)
SMILES,KCNQ2 enhance,KCNQ2 enhance baseline
CC(NC(=O)C1CCC(CNS(=O)(=O)c2ccccc2)CC1)c1ccccc1 (stereo not given),2.9,-0.43
CCc1nc(C)cc2c1sc1ccccc12,1.8,-3.6
CC(=O)Nc1ccc(NC(=O)CSc2ccc3nnc(-c4cccnc4)n3n2)cc1,0.5,-0.59
O=C(O)COc1ccccc1/C=C1\C(=O)Nc2ccc(Br)cc21,0.91,-0.01
Cc1ccc2cc3c(N)c(C(=O)N4CCOCC4)sc3nc2c1,0.19,-1.9
COc1cccc2c1cc1c(=O)n(CC(=O)NCCCN3CCN(C)CC3)nc(C)n12,1.1,-0.01
N=C1/C(=C/c2ccco2)C(=O)N=C2SC(CC(=O)N3CCCC3)=NN12,0.78,-0.33
c1cncc(-c2nc(NCCCN3CCOCC3)c3c4c(sc3n2)CCC4)c1,0.97,-1.3
O=C(O)CCC(=O)Nc1ccccc1C(=O)NCCc1ccccc1,1.1,0.54
Cc1ccc(C)c2sc(NC(=O)C3CC3)nc12,0.29,-0.04
O=C1C=C(N2CCOCC2)CO1,0.21,0.06
C#CCOCCOCCOCCNc1nc(N2CCN(C(=O)[C@H]([C@@H](C)CC)n3cc([C@@H](N)CC(C)C)nn3)CC2)nc(N2CCN(C(=O)[C@H]([C@@H](C)CC)n3cc([C@@H](N)CC(C)C)nn3)CC2)n1,0.42,-1.6
CCC1CCC/C1=N\NC(=O)c1ccc(Cl)cc1 (stereo not given),0.88,0.17
O=C(COC(=O)CNC(=O)c1sc2ccccc2c1Cl)NC1CCS(=O)(=O)C1 (stereo not given),0.9,0.72
CCc1ccccc1NC(=O)c1cc(-c2cccs2)on1,0.03,-0.48

# Sorted by value in KCNQ2 enhance (largest number first): some entries from above
Structure | KCNQ2 enhance | KCNQ2 enhance baseline
CC(NC(=O)C1CCC(CNS(=O)(=O)c2ccccc2)CC1)c1ccccc1 (stereo not given) | 2.9 | -0.43
COc1cccc2c1cc1c(=O)n(CC(=O)NCCCN3CCN(C)CC3)nc(C)n12 | 1.1 | -0.01
O=C(O)COc1ccccc1/C=C1\C(=O)Nc2ccc(Br)cc21 | 0.91 | -0.01
N=C1/C(=C/c2ccco2)C(=O)N=C2SC(CC(=O)N3CCCC3)=NN12 | 0.78 | -0.33

# Further structures
SMILES,KCNQ2 enhance,KCNQ2 enhance baseline
Cc1ccc(Nc2nc(N/N=C\c3ccc4c(c3)OCO4)nc(N3CCOCC3)n2)cc1,0.63,-2
Cc1ccc(S(=O)(=O)N2CCOCC2)cc1NC(=O)c1cc(-c2ccccn2)nc2ccccc12,0.82,-0.54
C=CCn1c(=O)[nH]c2cc(C(=O)N3CCN(c4ccc(C(C)=O)cc4)CC3)ccc2c1=O,0.91,0.01
COc1ccc(NC(=O)C23CC4CC(C2)CC(n2cnc(Br)n2)(C4)C3)cc1Cl,0.36,3.1
CC(OC(=O)C1CCCC1)C(=O)Nc1ccc(C(N)=O)cc1 (stereo not given),0.29,1.4
O=C(NCCNCc1ccc(F)cc1)c1ccco1,1.2,-0.34
CC(=O)NCCn1c(SCc2cccc([N+](=O)[O-])c2)nc2ccccc2c1=O,0.96,-0.06
Cc1nn(C)c(C)c1CN(C(=O)C1CCC(=O)N(C2CCCCCC2)C1)C(C)C (stereo not given),0.89,-0.56
O=C(Cn1nc(C(F)(F)F)c2c1CCC2)NCc1ccc(Cl)cc1,2.2,-0.64
CC(=O)c1cc(C)ccc1OC(=O)c1cccnc1,0.11,0.44
CCCn1c(C(O)c2ccc(OC)c(OC)c2)nc2ccccc21 (stereo not given),0.13,1.3
Cc1ccc2nc3sc(C(=O)Nc4c(C)[nH]c(=O)[nH]c4=O)c(N)c3cc2c1,1.5,-1.5
O=C(NC1CC1)C1=C[C@@H](C2CCCCC2)C[C@@H](OCc2ccc(CO)cc2)O1,0.47,-0.34
CC(=O)Nc1cccn(Cc2c(Cl)cccc2Cl)c1=O,3.3,-0.86
Nc1ncnc(Nc2cccc(Cl)c2Cl)n1,1.1,-0.94
NC(=O)C1CCN(C(=O)CCc2nc3sc4c(c3c(=O)[nH]2)CCCC4)CC1,0.17,-0.38
Cc1cc(OCCn2cc(/C(N)=N/O)c3ccccc32)ccc1Cl,0.1,1.1
Cc1ccc(-c2csc(NC(=O)c3ccco3)n2)cc1C,1.1,-0.14
CC1(C)NC(=O)N(CNc2cc(Cl)ccc2Cl)C1=O,0.49,0.02
CCc1ccc(NC(=O)CSc2nnc(-c3ccco3)o2)cc1,0.11,0.01
COc1ccc(CCNS(=O)(=O)c2cccc3nsnc23)cc1OC,2.2,-0.08
Cc1c(C)c2ccc(OCC(=O)Nc3ccc(S(N)(=O)=O)cc3)c(C)c2oc1=O,0.11,-0.52
Cc1c(Br)c(C(N)=O)nn1C,1.2,2.5
O=C(NCCN1CCCCCC1)C1CCN(S(=O)(=O)N2CCOCC2)CC1,1.1,0.06
CC(C)C(=O)NN1c2ccccc2CCc2ccccc21,0.26,0.55
COc1cc(C2NC(=O)NC(c3ccccc3)=C2C(C)=O)c(Br)c(Br)c1O (stereo not given),2,0.27
Cn1cnc([N+](=O)[O-])c1Nc1ccccc1O,0.65,0.19
O=C(CSc1nnc2c(n1)[nH]c1ccccc12)Nc1cccc(S(=O)(=O)N2CCOCC2)c1,1.1,-1.1
CN(C)c1nc(-c2ccccc2)nc(-c2ccc(Cl)cc2)c1C#N,0.77,-1.4
COC(=O)c1c(C)[nH]c(C(=O)OCC(=O)NCC(C)C)c1C,1.1,0.48

# An excerpt of these results, with values under each structure.
# Screens in order – KCNQ2 enhance, KCNQ2 enhance baseline
CCc1ccc(NC(=O)CSc2nnc(-c3ccco3)o2)cc1
  0.11, 0.01
COc1ccc(CCNS(=O)(=O)c2cccc3nsnc23)cc1OC
  2.2, -0.08
Cc1c(C)c2ccc(OCC(=O)Nc3ccc(S(N)(=O)=O)cc3)c(C)c2oc1=O
  0.11, -0.52
Cc1c(Br)c(C(N)=O)nn1C
  1.2, 2.5
O=C(NCCN1CCCCCC1)C1CCN(S(=O)(=O)N2CCOCC2)CC1
  1.1, 0.06

# A different layout for part of the listing above:
KCNQ2 enhance,KCNQ2 enhance baseline,canonical_smiles
7.7*,-1.1*,O=C(O)/C(CC(=O)c1ccc(Cl)cc1)=N/Nc1ccc([N+](=O)[O-])cc1[N+](=O)[O-]
1.1,-2.9,O=C(CSCc1ccccc1)Nc1ccccc1
0.02,-0.54,CC(=O)c1ccc(COC(=O)Cc2ccc([N+](=O)[O-])cc2)cc1

# (next part)
SMILES,KCNQ2 enhance,KCNQ2 enhance baseline
O=C(N/N=C/c1ccc2c(c1)OCO2)c1cccnc1,0.73,1.4
Cc1nnc(SCC(=O)Nc2ncc(S(=O)(=O)c3ccc([N+](=O)[O-])cc3)s2)s1,3.1,-1.1
CC(Cc1ccc(Cl)cc1)N1CCC(n2nccc2NC(=O)C2CCCC2)CC1 (stereo not given),0.54,-0.01
N#CCC(=O)N/N=C/c1ccc(OS(=O)(=O)c2ccccc2)cc1,0.94,1.3
COc1cccc(CNC(=O)C2Cc3cc(S(=O)(=O)N4CCCC4)ccc3N2C(C)=O)c1OC (stereo not given),0.95,-0.49
COc1ccc(-c2cnnn2-c2ccc(NC(=O)/C=C/c3ccc(OC)c(OC)c3)cc2)cc1,0.26,-0.52
c1ccc(-c2nnc(-c3ccccn3)nn2)nc1,0.19,-0.18
COc1ccc(/C=C/C(=O)NC(C)(C)C)cc1S(=O)(=O)N1CCOCC1,0.04,-0.02
CCOC(=O)C1CCN(c2cc3c(cc2NC(=O)c2ccc(F)cc2)n(C)c(=O)n3C)CC1,2.2,-0.85
CCOc1ccc(N2C(=O)CC(N3CCN(c4ccccc4OC)CC3)C2=O)cc1 (stereo not given),0.39,-0.68
COc1cc(C(=O)NC(=S)NNC(=O)[C@H]2C[C@@H]2c2ccccc2)cc(OC)c1OC,0.63,1.1
S=C(NCc1ccncc1)Nc1ccc(Cl)cc1,1.5,-0.06
COc1cccc(/C=N/n2c(CO)nc3ccccc32)c1OC,1.4,-0.01
N#Cc1cnn(-c2ccccc2)c1NC(=O)CN1CCN(c2ccccc2)CC1,1.6,-0.29
Oc1cccc2ccc(/C=C/c3ccccc3Br)nc12,1.3,-2.7
CCNS(=O)(=O)c1ccc(NS(C)(=O)=O)cc1,0.25,-0.64
Cc1ccc(Nc2nc3ccccc3n3cnnc23)cc1Cl,0.29,0.01
Cc1ccc(OCCCCNC2CCCCC2)c(C)c1,0.82,-0.25
Cc1ccc(S(=O)(=O)NNC(=O)Nc2ccccc2F)c(C)c1,0.72,-1.6
O=C(NCc1ccc(F)cc1)C1CCCN1S(=O)(=O)c1cccc2nsnc12 (stereo not given),1.1,-2.5
O=C(NCCN1CCOCC1)c1cc(=O)[nH]c2ccc(Br)cc12,0.12,2.4
O=C(Nc1ccc2c(c1)OCCO2)c1cccc(Cl)c1,1.7,-0.35
CCNC(=O)COc1ccc(S(=O)(=O)Nc2ccccc2)cc1,0.23,0.96
CC1Sc2ccc(S(=O)(=O)N3CCC(C(=O)Nc4cccc(Cl)c4)CC3)cc2NC1=O (stereo not given),1.4,1.6
CC(C(=O)NCCN1C(=O)S/C(=C\c2cccs2)C1=O)N1C(=O)c2ccccc2C1=O (stereo not given),0.16,-0.33
Cc1cccn2cc(CNS(=O)(=O)c3ccc4ccccc4c3)nc12,0.99,0.34
O=C(NCC1CCCO1)c1ccc(NC(=O)c2cccc(Cl)c2)cc1 (stereo not given),0.6,1.6
O=C(NCCc1ccccc1)C(=O)NCC(c1ccco1)N1CCOCC1 (stereo not given),2.5,-0.54
CC(C)(C)c1ccc(C(=O)NCC(=O)N/N=C/c2ccccc2OCC(=O)O)cc1,2.1,0.04
CC(C)c1ccc(NC(=O)C2CC3CCC2C3)cc1 (stereo not given),26*,0.24*
O=C(Nc1cccc(S(=O)(=O)C(F)F)c1)c1ccc(S(=O)(=O)N2CCOCC2)cc1,0.86,-1.4
O=[N+]([O-])c1cc(C(F)(F)F)ccc1Oc1cccnc1[N+](=O)[O-],0.11,-0.42
COc1ccc(CCNC(=O)c2cnn(-c3ccc(C)c(C)c3)c2NC(=O)c2ccco2)cc1OC,0.01,-1.5
COc1ccc(/C=C/CN2CCN(Cc3ccccc3)C(CCO)C2)cc1 (stereo not given),1.7,0.32
COc1ccc(CCNC(=O)C/C(C)=N/NC(=O)C23CC4CC(CC(C4)C2)C3)cc1OC,0.53,0
COc1ccc(/C=C(/NC(=O)c2ccccc2)C(=O)NC2CCS(=O)(=O)C2)cc1 (stereo not given),0.56,-0.66

# Compound activity as filed in PubChem BioAssay.
